Screening data from PubChem BioAssay.
GIV-Gai inh – inhibitors of GIV peptide binding to Galpha-i3, primary screen, biochemical, fluorescence polarization, FITC-GIV GBA peptide, rat Galphai3; Guanine nucleotide-binding protein G(i) subunit alpha-3 (Rattus norvegicus), P08753; hit rate 0.42% among 210,000; percent of control (FP), % (no concentration beside the values); 90 min; hits give low values; scaled: aluminum fluoride 0%, vehicle 100%;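 active = replicate mean at 85% of control or lower, very high polarization wells dropped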;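 note: wells of about 15 µL received 100 nL stock; the first replicate is given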
Target sequence (P08753 whole entry, looked up): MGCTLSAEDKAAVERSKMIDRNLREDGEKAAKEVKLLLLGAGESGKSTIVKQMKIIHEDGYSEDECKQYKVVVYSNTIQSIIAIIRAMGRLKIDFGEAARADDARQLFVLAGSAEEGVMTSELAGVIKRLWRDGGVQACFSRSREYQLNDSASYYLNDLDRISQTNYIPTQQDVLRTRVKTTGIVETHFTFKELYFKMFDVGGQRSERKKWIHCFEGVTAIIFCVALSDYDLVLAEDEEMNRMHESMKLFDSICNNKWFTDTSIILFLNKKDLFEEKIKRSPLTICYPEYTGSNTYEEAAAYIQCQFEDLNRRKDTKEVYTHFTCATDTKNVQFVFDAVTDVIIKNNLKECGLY
An asterisk follows results filed as active. Not all compounds are listed. The share of hits here may be higher or lower than overall.

GIV-Gai inh | Structure
99.1 | Cc1ccc(C(=O)N2CCN(CCNC(=O)C(=O)NCc3ccccc3)CC2)cc1
107.6 | CCC(=O)Nc1cnc(N2CCN(c3cc(Cl)ccc3C)CC2)c(C(=O)O)c1
97.7 | O=c1[nH]c(SC/C=C/c2ccccc2)nc2c1cnn2-c1ccccc1
112.9 | CCn1nccc1C(=O)N1CCCC(c2n[nH]c(C3CC3)n2)C1 (configuration not stated)
98.0 | Cn1cc(S(=O)(=O)NCc2ccc(Cl)cc2)c(S(=O)(=O)NCc2ccc(Cl)cc2)c1
102.5 | COC(=O)c1sccc1NC(=O)Cn1cc(-c2nc(-c3ccc(Cl)cc3)no2)ccc1=O
107.5 | CC(=O)N[C@H]1[C@H](Oc2ccccc2)O[C@H](COC(C)=O)[C@@H](OC(C)=O)[C@@H]1OC(C)=O
106.8 | CCOC(=O)c1c(C)[nH]c(CCC(=O)NCCc2c[nH]c3ccc(OC)cc23)c1C
111.3 | Cc1ccc(C)c(N2CC(O)(c3ccccc3)[N+]3=C2CCCC3)c1 (configuration not stated)
124.6 | Nc1c2c3c(cccc3n(C3CCCCC3)c1=O)C(=O)c1ccccc1-2
101.8 | CCc1nc(SCC(=O)c2ccc(O)c(O)c2)n[nH]1
102.8 | COc1ccc(CCNC(=O)c2sc3nc(C)nc(N4CCCCC4)c3c2C)cc1OC
114.4 | CC(=O)Nc1cc(=O)[nH]c(NC(C)=O)n1
121.6 | OC(CN1CCCCCC1)Cn1c2ccc(Cl)cc2c2cc(Cl)ccc21 (configuration not stated)
103.4 | Cc1ccc(S(=O)(=O)/N=C2/NC(=O)/C(=C/c3ccccn3)S2)cc1
98.3 | O=C(C1CC(=O)N(c2ccc3c(c2)CCN3C(=O)C2CCC2)C1)N1CCCC1 (configuration not stated)
115.3 | Cc1ccc(S(=O)(=O)Nc2ccccc2C(C#Cc2ccccc2)N2CCOCC2)cc1 (configuration not stated)
106.9 | CCOC(=O)c1nnn(-c2nonc2N)c1CN1CCN(c2ccccc2)CC1
94.9 | Cn1ncc2c(Nc3ccccc3F)ncnc21
108.0 | CCOc1ccc(-c2nn(-c3ccccc3)cc2C2NC(=O)NC(C)=C2C(=O)OC)cc1C (configuration not stated)
105.7 | O=S1(=O)c2ccccc2S(=O)(=O)N1Cc1cccc(Cl)c1
100.2 | CCOC(=O)C1C(=O)NC(SCC(=O)Nc2cc(OC)c(Cl)cc2OC)=C(C#N)C1c1ccccc1OCC (configuration not stated)
113.0 | COC(=O)C1=C(C(=O)OC)SC2(S1)C(C(=O)OC)=C(C(=O)OC)SC1=C2c2ccccc2N(C)C1(C)C
97.7 | COc1ccc(Oc2cc3c(cc2NS(=O)(=O)c2ccc(OC)cc2)n(C)c(=O)n3C)cc1
98.4 | Cc1ccccc1-c1noc(CCc2nnc3ccc(N4CCOCC4)nn23)n1
111.6 | c1ccc2c(-c3nc(-c4ccn5cnnc5c4)no3)n[nH]c2c1
24.9* | Cc1ccc(N=Cc2nc(-c3cccc4ccccc34)oc2O)c(Br)c1
103.0 | O=C(NCc1nnnn1-c1ccc(F)c(F)c1)C1CC(=O)N(c2ccccc2)C1 (configuration not stated)
99.1 | COc1ccc(-c2cc(Oc3cccc(C(=O)Nc4cccc(OC)c4)c3)ncn2)cc1
104.0 | CCCCc1cnc2c(c1SC)c(=O)n(C)c(=O)n2C
100.5 | CCSc1nc2c(c(=O)[nH]1)C(C(=O)Nc1ccccc1C)CC(=O)N2 (configuration not stated)
100.3 | CCc1cc(-c2csc(S(=O)(=O)N3CC=C(c4ccccc4)CC3)c2)on1
103.1 | Cn1nccc1-c1csc(S(=O)(=O)N2CCCC2)c1
95.9 | Cc1ccc(-n2ccc(=O)c(-c3nc(-c4cccc(F)c4)no3)n2)cc1
106.4 | CC(=O)OCC12COC(c3ccc(N(C)C)cc3)C(C(C)=CC1C)C2C (configuration not stated)
97.8 | CCn1cc(S(=O)(=O)N2CCCn3nc(-c4ccc(C(F)(F)F)cc4)cc3C2)cn1
101.7 | O=C(CCn1cnc2c(-c3ccc(F)cc3)noc2c1=O)NC1CC1
99.9 | Cc1cccc(OCC(=O)Oc2cccc(NC3=NS(=O)(=O)c4ccccc43)c2)c1
105.4 | O=C(Nc1ccc(F)c(Cl)c1)c1cc(S(=O)(=O)NCCc2ccccc2)ccc1F
96.6 | O=C(NCc1c(-c2ccccc2)nc2n1CCS2)c1cncc(Br)c1
99.1 | CNC(=O)N(C)Cc1ccsc1
104.8 | Clc1ccccc1-c1nc(-c2ccncc2)no1
104.0 | COc1ccc(-c2nnc3sc(CN4CCc5ccccc5C4)cn23)cc1
116.5 | CN1c2ccccc2-c2ccccc2C12C=Cc1cc([N+](=O)[O-])ccc1O2 (configuration not stated)
98.3 | COc1cccc(NC(=O)Cn2c(=O)ccc3cc(S(=O)(=O)N4CCCC4)ccc32)c1
104.1 | O=C(Nc1ccc(Br)cc1)c1ccc(F)c(S(=O)(=O)N2CCN(c3ccc(F)cc3)CC2)c1
100.0 | Cc1nn2c(CNC(=O)C3CCC3)c(C)nc2s1
101.9 | COCCOC(=O)C1=C(C)NC(C)=C(C(=O)OCCOC)C1c1ccc(-c2cccc(Br)c2)o1
96.3 | CC1CCCCN1S(=O)(=O)c1cc2c(cc1Cl)NC(=O)CO2 (configuration not stated)
101.3 | COc1ccc(C2c3cccn3CCN2S(=O)(=O)c2ccc(OC)c(OC)c2)cc1 (configuration not stated)
105.9 | CCCn1cnnc1C1CCCN(C(=O)c2ccsc2)C1 (configuration not stated)
108.7 | CCOC(=O)c1sc(NC(=O)C(CC)Sc2nnc(C)c(=O)[nH]2)nc1C (configuration not stated)
103.0 | CCCCCCSc1nnc2n(-c3ccccc3)c(=O)c3c(C)c(C)sc3n12
101.9 | Cc1cc(C)c(S(=O)(=O)Nc2cnc(N3CCNCC3)c(C(=O)N3CCC(C)CC3)c2)c(C)c1
107.4 | Cc1ccc2c(nc3s/c(=C\c4ccc(OCc5ccccc5F)cc4)c(=O)n32)c1C
108.8 | CCCCCCc1nc2ccccc2c(=O)n1NC(=O)c1c(O)c2cccc3c2n(c1=O)CCC3
103.5 | O=C(Nc1c2c(nn1-c1ccc([N+](=O)[O-])cc1)CS(=O)(=O)C2)c1ccc(Cl)c([N+](=O)[O-])c1
105.7 | CCOC(CNC(=O)c1ccc2c(c1)nc(C)n2-c1cc(Cl)ccc1OC)OCC
106.8 | CCOC(=O)c1cc2c(nc1C)-c1ccc([N+](=O)[O-])cc1C2=Nc1cccc2ccccc12
113.4 | NS(=O)(=O)c1ccc(CCNC(=O)CSc2nc3c(sc(=S)n3-c3ccccc3)c(=O)[nH]2)cc1

Some of these compounds in order of the GIV-Gai inh value, largest number first:
GIV-Gai inh | Structure
113.4 | NS(=O)(=O)c1ccc(CCNC(=O)CSc2nc3c(sc(=S)n3-c3ccccc3)c(=O)[nH]2)cc1
106.8 | CCOC(=O)c1cc2c(nc1C)-c1ccc([N+](=O)[O-])cc1C2=Nc1cccc2ccccc12
98.3 | COc1cccc(NC(=O)Cn2c(=O)ccc3cc(S(=O)(=O)N4CCCC4)ccc32)c1

Copied from the entries so far (6 entries):
GIV-Gai inh | Structure
100.5 | CCSc1nc2c(c(=O)[nH]1)C(C(=O)Nc1ccccc1C)CC(=O)N2 (configuration not stated)
100.3 | CCc1cc(-c2csc(S(=O)(=O)N3CC=C(c4ccccc4)CC3)c2)on1
103.1 | Cn1nccc1-c1csc(S(=O)(=O)N2CCCC2)c1
95.9 | Cc1ccc(-n2ccc(=O)c(-c3nc(-c4cccc(F)c4)no3)n2)cc1
106.4 | CC(=O)OCC12COC(c3ccc(N(C)C)cc3)C(C(C)=CC1C)C2C (configuration not stated)
97.8 | CCn1cc(S(=O)(=O)N2CCCn3nc(-c4ccc(C(F)(F)F)cc4)cc3C2)cn1

Later entries.
GIV-Gai inh | Structure
104.7 | Cn1cnc2ccc(-c3noc(-c4ccc(Br)cc4)n3)cc21
106.3 | CCOC(=O)c1cnc2c(C)cc(C)cc2c1Nc1ccccc1C
116.0 | O=S(=O)(NC1CCCCCCC1)c1ccc(-c2cnc(C3CC3)o2)s1
104.0 | Cc1nc(N2CCOCC2)nc(Nc2cccc(Cl)c2)c1[N+](=O)[O-]
107.3 | COc1ccc(C2(O)CN(c3cccc(C)c3)C3=[N+]2CCCS3)cc1OC (configuration not stated)
109.8 | O=C1CCCC2=C1C(c1cc(Br)ccc1O)C1=C(N2)c2ccccc2C1=O (configuration not stated)
112.2 | O=C(c1ccccc1)N1CCN(C2c3cccc4cccc(c34)C2NS(=O)(=O)c2ccccc2)CC1 (configuration not stated)
110.4 | Ic1ccc2nc(-c3ccccc3)c(-c3ccccc3)nc2c1
107.0 | O=S(=O)(c1ccc(-c2nnc(C3CC3)o2)o1)N1CCCC1
102.5 | Cc1nnc(-c2c(C)[nH]c(C)c2S(=O)(=O)N2CCCCC2)o1
98.1 | O=S(=O)(Nc1ccc(F)c(F)c1)c1ccc2nncn2c1
97.1 | Cc1nn2c(S(=O)(=O)N3CCSCC3)c(C(C)C)nc2s1
107.5 | COc1ccccc1N1CCN(C(=O)c2cnn3c(C)c(Cc4ccccc4C)c(C)nc23)CC1
108.2 | CCN(CC)c1ncnc2sc(C(=O)N3CCN(Cc4ccc5c(c4)OCO5)CC3)c(C)c12
102.3 | CCn1nc(C)c2ccnc(N3CCC(C(=O)N4CCN(CC(=O)N5CCOCC5)CC4)CC3)c21
108.2 | CC1CCCCC1NC(=O)c1sc2ncccc2c1-n1cccc1 (configuration not stated)
104.5 | O=[N+]([O-])c1cccc(Nc2nc(OCC(F)(F)F)nc(OCC(F)(F)F)n2)c1
97.0 | O=S(=O)(c1ccc(F)c(Cl)c1)N1CCc2nc[nH]c2C1
107.9 | COc1ccc(OC)c(NC(=O)CSc2nc3n[nH]c(C)c3c(=N)n2-c2ccc(Br)cc2)c1
98.4 | Brc1ccc(C2Nc3ccccc3C(c3ccccc3)(c3ccccc3)O2)cc1 (configuration not stated)
102.9 | CC(C)COc1ccc(-c2noc(CCn3nc(-c4ccc5c(c4)OCO5)ccc3=O)n2)cc1
120.3 | COCC1=C(C(=O)OC)C(c2c(F)cccc2Cl)C(C#N)=C(N)O1 (configuration not stated)
106.6 | COc1ccc(O)c(C2=Nc3ccccc3N=C(c3cccc(Br)c3)C2)c1
106.3 | CCC1CCc2c(sc(NC(=O)c3c(-c4c(Cl)cccc4Cl)noc3C)c2C(N)=O)C1 (configuration not stated)
106.7 | Nc1nc(Cn2c(-c3nonc3N)nc3ccccc32)nc(N2CCOCC2)n1
102.2 | COc1ccc(N2C(=O)C(=O)/C(=C(\O)c3ccc(Cl)cc3)C2c2ccccc2F)cc1 (configuration not stated)
108.2 | Cn1c(=O)n(CCC(=O)N2CCCC2)c(=O)c2cc(S(=O)(=O)NCc3ccccn3)ccc21
103.3 | Cc1cccc(NC(=O)Nc2ccc(Nc3nc(C)cc(N4CCCC4)n3)cc2)c1
106.1 | O=c1c2ccccc2c(=O)c2c1c(N1CCOCC1)cc1oc3cc(Cl)ccc3[nH]c12
98.7 | O=C(NC1CCCc2ccccc21)c1ccccc1NC(=O)c1nsc2ccccc12 (configuration not stated)
310.1 | O=C1NC(=S)N(c2ccc(Br)cc2)C(=O)/C1=C/c1ccc(N2CCOCC2)o1
109.3 | O=C(Cc1ccccc1)Nc1nnc(SCC(=O)Nc2nnc(-c3cccc([N+](=O)[O-])c3)s2)s1
114.3 | COC(=O)c1cc(N2C(=O)/C(=C/c3ccc(Cl)cc3)C=C2c2ccccc2)ccc1Cl
118.6 | CCOC(=O)c1c(C)oc2ccc(N(C(=O)c3ccc([N+](=O)[O-])cc3)S(=O)(=O)c3ccc(C)cc3)cc12
103.6 | N#Cc1c(/N=C/c2cccc(I)c2)oc(-c2ccccc2)c1-c1ccccc1
101.0 | CC(C)CNC(=O)C1CCCN(c2ncc(-c3ccc(F)cc3)cn2)C1 (configuration not stated)
101.8 | CCn1c(=O)c(=O)n(CC(=O)NCCCOC(C)C)c2cccnc21
101.6 | Cc1sc(-c2cc(C(F)(F)F)[nH]n2)cc1S(=O)(=O)N1CCN(c2ccccc2)CC1
103.5 | CCOC(=O)N1CCN(C(=O)c2c[nH]c3ccc(S(=O)(=O)N(C)c4cccc(C)c4)cc3c2=O)CC1
110.3 | O=C(C1CCN(c2ncnc3c2oc2ccccc23)CC1)N1CCCC1
104.2 | Cc1ccc(CNC(=O)c2nnc(-c3ccc(S(=O)(=O)N4CCCC4)cc3)o2)cc1
100.9 | O=C1Nc2ccccc2NC(=O)C2C3c4ccccc4C(c4ccccc43)C12 (configuration not stated)
104.9 | CCCN1CCN(c2ncnc3sc(C(=O)NCCc4ccc(OC)c(OC)c4)c(C)c23)CC1
100.7 | O=C(Nc1ccc(Br)cc1)c1ccc(F)c(S(=O)(=O)N2CCN(c3ccccc3Cl)CC2)c1
111.6 | CCOC(=O)CSc1nc2cc(C(=O)Nc3ccc(OC)c(OC)c3)ccc2c(=O)n1C1CCCCC1
107.0 | O=C(/C=C/c1ccccc1)Nc1cc(C(=O)NCc2cccc(Cl)c2)ccc1N1CC2CC(C1)c1cccc(=O)n1C2 (configuration not stated)
116.1 | O=C(CN1CCCC1)NCC1(c2ccccc2)CCCC1
101.7 | O=C(NC1COc2ccccc2C1)N1CCOCC1 (configuration not stated)
110.3 | Cc1nn(-c2ccccc2)c2sc(C(=O)Oc3cccc(Cl)c3)cc12
104.2 | O=C(CCN1C(=O)C2C3C=CC(C3)C2C1=O)Nc1ccc(Cl)c(C(F)(F)F)c1 (configuration not stated)
109.2 | COc1ccc(CC(=O)NCC2(c3ccccc3)CCCC2)cc1
105.2 | CN1CCC(N2CCN(S(=O)(=O)c3cc(-c4nc(C(C)(C)C)cs4)cs3)CC2)CC1
103.7 | CCc1ccccc1Nc1ncnc2c1cnn2-c1ccc(OC)cc1
109.9 | Cc1cc(C)c(N2C(=O)C3C4CC(=O)C(c5ccccc54)C3C2=O)c(C)c1 (configuration not stated)
106.4 | Cc1cc2c(cc1CNC(=O)CSc1nnc(-c3c[nH]c4ccccc34)n1C)OCCCO2
109.0 | O=C(Nc1c(F)cc(F)cc1Br)c1cc(S(=O)(=O)N2CCN(c3ccccn3)CC2)ccc1F
112.8 | COc1ccc(C2(C(=O)NCC3(c4ccccc4)CCCC3)CCCC2)cc1OC
